High-throughput results (PubChem)
NPSR antagonist: antagonists of human neuropeptide S receptor cAMP signaling; 220,000 compounds, 1% hits; Potency, µM (series often up to 38.3 µM), for inactives: at the top dose activity change, negative = inhibition, hits mostly inhibitors; CHO-NPSR cells, cAMP TR-FRET, antagonist mode; note: % is set by controls: 0 for no effect and ±100 for the full control effect; nearly all actives have a fitted effect of over 50% in size; many of its hits are not listed in these tables
Target sequence (Q6W5P4 whole entry, looked up): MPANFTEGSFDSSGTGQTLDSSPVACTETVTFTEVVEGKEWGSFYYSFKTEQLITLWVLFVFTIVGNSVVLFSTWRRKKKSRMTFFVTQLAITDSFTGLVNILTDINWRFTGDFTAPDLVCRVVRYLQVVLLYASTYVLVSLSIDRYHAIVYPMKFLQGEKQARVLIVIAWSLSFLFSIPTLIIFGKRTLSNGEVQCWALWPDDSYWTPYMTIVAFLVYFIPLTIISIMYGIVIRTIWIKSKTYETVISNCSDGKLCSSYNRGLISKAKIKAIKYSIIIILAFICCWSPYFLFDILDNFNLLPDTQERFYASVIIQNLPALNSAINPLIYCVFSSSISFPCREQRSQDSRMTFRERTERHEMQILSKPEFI
Epigenetic reg: epigenetic control regulation, reporter derepression; murine LDR cells, GFP reporter derepression, 30 h; Potency, µM (doses to about 53.9 µM), for the others: at the highest dose GFP activation, hits mostly activators; 280,000 compounds, 0.2% hits; AID 1865; note: % of control where 0% means no effect; nearly all actives have a fitted effect of over 60% in size
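Murine LDR cells bearing a silenced CMV-driven GFP reporter were exposed to compound for 30 h at 37 C. After PBS washes, GFP-positive cells (20-120 um objects) counted by laser-scanning microplate cytometry.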
HttQ103 aggreg: inhibitors of mutant huntingtin aggregate formation in PC12 cells; Potency, µM (doses to about 46.1 µM), for the others: at the highest dose activity change, negative = inhibition, most hits filed as inhibitors; 220,000 compounds, 1.1% hits; PC12 HttQ103-GFP aggregates, Acumen cytometry, 40 h; note: % is set by controls: 0 for no effect and ±100 for the full control effect; nearly all actives have a fitted effect of over 60% in size
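Aggregates are detected as GFP objects 1–25 µm with signal 6 STDEV over background in lysates of induced PC12 cells. These carry Huntingtin exon 1 with 103 glutamines fused to GFP under an ecdysone promoter; compounds titrated.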
Active calls of the source: *; / = no result given; & = joins results of further samples; [ ] = another dose, or the depositor's remark. Calls come from the whole dose curve; as a rule, active = well fitted curve in the direction sought with a large enough effect; inconclusive = small, poorly fitted or top-dose-only effect, or another doubt; inactive = no such curve, though single readings can be large; an effect the other way counts as inactive or inconclusive. Potency is the fitted concentration of half-maximal effect.

HttQ103 aggreg | Epigenetic reg | NPSR antagonist | SMILES
/ | -0.1% | / | CCCCC[C@H](O)C=C[C@H]1[C@H](O)CC(=O)[C@H]1CCCCCCC(=O)O
/ | -0.3% | / | NCC(=O)O
/ | -0.5% | / | O=C(O)CC(O)(CC(=O)O)C(=O)O
18.1% | -0.9% | -53.8% | NC(=O)CCN1CCN(CCOC2Cc3cc(Cl)ccc3Sc3ccccc32)CC1 (stereo unspecified)
-7.5% | -0.4% | 21.0% | CC(=O)Nc1ccc(S(=O)(=O)NC2(C(F)(F)F)C(=O)Nc3c2c(=O)[nH]c(=O)n3Cc2ccco2)cc1 (stereo unspecified)
4.0% | -1.0%&-1.4% | 43.9% | C[C@]12CCC(=O)C=C1CC[C@@H]1[C@@H]2[C@@H](O)C[C@@]2(C)[C@H]1CC[C@]2(O)C(=O)CO
/ | 1.1%[16.9 µM] | / | C[C@@]12CCC(=O)C=C1CC[C@@H]1[C@@H]2[C@H](O)C[C@]2(C)[C@@H]1CC[C@]2(O)C(=O)CO
/ | -1.2%&0.8%&2.5% | -2.8%[46.1 µM] | N[C@@H](CC(=O)O)C(=O)O
5.9% | 4.5%&1.0% | 2.1% | CC1=C(C(=O)O)N2C(=O)[C@@H](NC(=O)[C@H](N)c3ccccc3)[C@H]2SC1
/ | -1.1% | / | CCCCCC(=O)CC[C@@H]1[C@@H](C/C=C\CCCC(=O)O)[C@@H](O)C[C@H]1O

Five compounds out of the list, ordered by molecular weight, low to high:
HttQ103 aggreg | Epigenetic reg | NPSR antagonist | SMILES
/ | -0.3% | / | NCC(=O)O
/ | -0.5% | / | O=C(O)CC(O)(CC(=O)O)C(=O)O
5.9% | 4.5%&1.0% | 2.1% | CC1=C(C(=O)O)N2C(=O)[C@@H](NC(=O)[C@H](N)c3ccccc3)[C@H]2SC1
/ | -0.1% | / | CCCCC[C@H](O)C=C[C@H]1[C@H](O)CC(=O)[C@H]1CCCCCCC(=O)O
/ | 1.1%[16.9 µM] | / | C[C@@]12CCC(=O)C=C1CC[C@@H]1[C@@H]2[C@H](O)C[C@]2(C)[C@@H]1CC[C@]2(O)C(=O)CO

Full records, quoted from the list:
`C[C@@]12CCC(=O)C=C1CC[C@@H]1[C@@H]2[C@H](O)C[C@]2(C)[C@@H]1CC[C@]2(O)C(=O)CO` across the screens: HttQ103 aggreg: /; Epigenetic reg: 1.1%[16.9 µM]; NPSR antagonist: /
`CCCCC[C@H](O)C=C[C@H]1[C@H](O)CC(=O)[C@H]1CCCCCCC(=O)O` across the screens: HttQ103 aggreg: /; Epigenetic reg: -0.1%; NPSR antagonist: /

The list is partial. The share of hits here may be higher or lower than overall.
